# T cruzi repl – inhibitors of intracellular T. cruzi growth, primary screen, luminescence, NIH3T3 host cells; T. cruzi beta-gal in NIH3T3, 90 h; inhibition, % (test concentration not listed); hit rate 1.4% among 300,000;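 active = mean inhibition across valid replicates above about 55%, limit read from the data; inconclusive = mean below that limit but half or more replicates reach it; inactive = mean below it, under half of replicates reach it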;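 note: signal also drops with host cell toxicity which is not excluded here; 0% = plate median of DMSO wells and 100% = zero luminescence signal; higher percent means less beta-gal luminescence so fewer parasites; stock transfer was 50 nL into about 50 µL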
# RanGTP-Impb inh – inhibitors of RanGTP-importin-beta interaction, primary screen, biochemical, FRET, CFP-Ran, YFP-importin-beta, homogeneous; inhibition, % (no concentration beside the values); AID 2216, 2009; Ran GTPase (GTP-bound) - importin-beta complex; cell-free CFP-Ran/YFP-importin-beta FRET ratio; hit rate 1.1% among 300,000;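 active = most replicates above 15%; inconclusive = exactly half above 15%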;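 note: 0% = DMSO wells and 100% = Ran loaded with GDP instead of GTP; wells of about 40 µL received 100 nL stock; the first replicate is given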
# Vif A3G – inhibitors of Vif binding to APOBEC3G peptide, primary screen, biochemical, TR-FRET, GST-Vif 1-94, biotin-A3G peptide, dose response retest (AID 1117319) | one-dose inhibition, %; IC50 in µM for titrated hits | hit rate 0.57% among 260,000 | Virion infectivity factor (Human immunodeficiency virus type 1 group M subtype B (isolate … | TR-FRET GST-Vif / biotin-A3G peptide binding; higher % means a stronger effect; test concentration not given here; strong numbers were not always called active;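 active = above the screen mean plus three standard deviations and confirmed in dose response; inconclusive = results disagree or hit not tested in dose response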;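 note: Vif residues 1-94 fused to GST binding biotinylated APOBEC3G peptide 110-148; 0% = full assay without inhibitor and 100% = GST in place of GST-Vif; retest series ran down from 100 µM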
# Calb FLC – C. albicans growth inhibition with fluconazole, primary screen, CaCi-2 strain, Alamar Blue fluorescence. C. albicans CaCi-2 (fluconazole-resistant clinical isolate) + fluconazole, 48 h. growth inhibition, % (concentration not given with the values). hit rate 0.57% among 300,000;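 active = most replicates above 75%; inconclusive = exactly half above 75%; inactive = most below 75%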;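 note: all wells also contain fluconazole at 8 µg/ml as a sub-toxic cotreatment; 0% = median of DMSO wells and 100% = median of geldanamycin control wells; wells of about 8 µL received 7.5 nL stock; the first replicate is given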
# LANA-H2A inh – blockers of LANA interaction with H2A/H2B – biochemical, FP readout, HTS, primary screen; Protein LANA1 (Human herpesvirus 8 type P (isolate GK18)), Q9QR71; cell-free LANA-H2A/H2B peptide, fluorescence polarization; inhibition, % (no concentration beside the values); hit rate 0.6% among 320,000; AID 2629, 2010; in the data active = inhibition mostly above about 10%, no sharp cut-off; inactive = mostly below about 6.7%;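 note: stock transfer was 7.5 nL into about 10 µL; 0% = median of vehicle wells and 100% = median of positive control wells; one replicate is shown; the record names a cut of 25% in any replicate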
# Target sequence (Q9QR71 whole entry, looked up): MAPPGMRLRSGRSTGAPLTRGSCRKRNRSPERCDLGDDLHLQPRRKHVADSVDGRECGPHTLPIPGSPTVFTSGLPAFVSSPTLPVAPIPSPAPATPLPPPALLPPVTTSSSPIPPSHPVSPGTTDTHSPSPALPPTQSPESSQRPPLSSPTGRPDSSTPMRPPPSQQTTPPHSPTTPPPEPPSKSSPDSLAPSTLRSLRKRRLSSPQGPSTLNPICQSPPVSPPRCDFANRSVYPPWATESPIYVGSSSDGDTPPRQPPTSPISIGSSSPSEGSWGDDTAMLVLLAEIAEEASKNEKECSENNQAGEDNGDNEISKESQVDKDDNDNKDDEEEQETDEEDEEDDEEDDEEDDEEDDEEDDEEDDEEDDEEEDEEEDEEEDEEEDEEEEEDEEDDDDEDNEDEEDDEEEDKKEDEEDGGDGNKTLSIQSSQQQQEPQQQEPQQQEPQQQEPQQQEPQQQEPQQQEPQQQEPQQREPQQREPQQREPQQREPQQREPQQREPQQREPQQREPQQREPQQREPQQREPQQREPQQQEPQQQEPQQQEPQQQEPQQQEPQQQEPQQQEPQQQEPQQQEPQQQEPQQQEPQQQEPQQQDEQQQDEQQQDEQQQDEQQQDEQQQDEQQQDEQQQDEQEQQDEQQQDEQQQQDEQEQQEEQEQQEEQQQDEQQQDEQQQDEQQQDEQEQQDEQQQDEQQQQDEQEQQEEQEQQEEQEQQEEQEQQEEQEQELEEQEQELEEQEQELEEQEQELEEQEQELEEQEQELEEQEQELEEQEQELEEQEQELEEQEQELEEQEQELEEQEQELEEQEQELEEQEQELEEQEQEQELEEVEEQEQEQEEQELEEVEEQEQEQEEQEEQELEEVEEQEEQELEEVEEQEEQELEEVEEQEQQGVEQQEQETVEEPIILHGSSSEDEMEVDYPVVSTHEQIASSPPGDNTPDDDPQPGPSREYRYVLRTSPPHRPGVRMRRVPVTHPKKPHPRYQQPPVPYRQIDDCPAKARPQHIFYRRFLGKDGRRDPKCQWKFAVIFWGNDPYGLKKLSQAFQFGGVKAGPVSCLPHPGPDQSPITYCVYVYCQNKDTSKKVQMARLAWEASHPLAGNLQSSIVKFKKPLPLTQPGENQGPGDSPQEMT
# Bfl-1 A1 inh – caspase 3/7 activation in MEF A1-2A-BIM cells, primary screen, A1 inhibitor project, cell-based, luminescence, HTS; Caspase-Glo 3/7 luminescence, 3 h; percent of clofoctol response, vehicle zero; hit rate 0.066% among 330,000; caspase activation, % (test concentration not listed);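 active = over half of replicate activation scores above 10%, or exactly half above 10 with the replicate mean above 10; inconclusive = replicate mean below 10 yet half the replicates above 10; inactive = over half of replicates below 10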;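 note: wells of about 30 µL received 50 nL stock; many hits fall short of the cut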
# Beta cell apopt – inhibitors of cytokine-induced beta cell apoptosis, primary screen, luminescence. INS-1E cytokine-induced death, ATP luminescence, 48 h; percent of positive-control rescue, neutral wells zero. hit rate 0.8% among 300,000. protection from apoptosis, % (concentration not given with the values);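 active = all replicates at 75% or more, or half of them and the mean; inconclusive = half reach 75% but not the mean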;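 note: 0% = cytokine-treated negative control wells and 100% = positive control rescue; higher means more ATP so stronger rescue from cytokine killing; wells of about 40 µL received 100 nL stock; the first replicate is given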
# MLL AF4-AF9 inh – inhibitors of AF4 peptide binding to AF9, primary screen, biochemical, AlphaScreen, biotin-AF4 peptide, FLAG-AF9, single point. hit rate 0.47% among 350,000. Protein AF-9 (Homo sapiens), P42568. inhibition, % at 10 µM;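 active = every replicate reaching a set inhibition limit, whatever the replicate mean, cut at about 25% in these data; inconclusive = mean inhibition reaches that limit but some replicates miss it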;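 note: 0% = plate neutral control median and 100% = total signal loss; the record names both 10 and 1 µM as test concentration; the first replicate is given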
# Numbers without * were called inactive; ? = inconclusive; · = not tested or not shown; + = active, no number. Compounds as they come. Share with any hit: about 4.3%.
SMILES,T cruzi repl,RanGTP-Impb inh,Vif A3G,Calb FLC,LANA-H2A inh,Bfl-1 A1 inh,Beta cell apopt,MLL AF4-AF9 inh
Cc1cc(C)n(Cc2cc(C(=O)O)c3ccccc3n2)n1,-1,2.8,17%,-4,1.8,-0.3,-3,-1.5
Cc1cccn2c(=O)c3cc(C(=O)NC4CCCC4)c(=N)n(CCCN4CCOCC4)c3nc12,23,175*,·,1,3.4,-0.5,5,-12
O=C(CCNC(=O)Cn1ccc2ccccc2c1=O)NCc1ccc(F)cc1Cl,-5,7.8,-5%,-1,2.5,-0.1,-2,-0.6
COc1cc(OC)cc(C(=O)Nc2ccc(Nc3ccccc3)cc2)c1,-1,-3.3,-3%,-5,5.8,-1.9,21,11
O=C(COC(=O)c1ccccn1)Nc1cccnc1Cl,21,3.1,6%,18,2.7,0.0,-5,-1.3
O=C(c1ccccc1)N1CCN(C(=O)c2ccc([N+](=O)[O-])cc2)CC1,9,8.6,·,6,-2.5,-0.4,-7,·
O=C(CSc1ncnc2c1oc1ccccc12)NCc1ccco1,-26,4.6,-14%,-9,0.6,0.1,-2,·
Cc1ccc(-n2cc(CNC(C)c3cnn(C)c3C)c(-c3ccc(F)cc3)n2)cc1 (stereo not drawn),-2,5.5,7%,-9,2.7,-0.2,6,-2.0
CCOc1cc(C(=O)NC)cc(OCC)c1OCC,-5,1.7,3%,6,1.6,1.0,3,·
CCOc1ccc(N(C)Cc2cc(=O)oc3ccc(OCC)cc23)cc1,16,-1.9,5%,13,1.9,1.1,-1,3.4
O=C(CCC1CCCN(c2ncccn2)C1)NCc1ccccc1F (stereo not drawn),9,1.4,7%,9,16,2.1,-1,-1.0
CC1CCc2cc(F)ccc2N1C(=O)c1cnc2sccn2c1=O (stereo not drawn),-7,-4.4,1%,-2,0.6,0.2,-4,-3.9
CC(=O)c1cccc(S(=O)(=O)N2CCC(n3nnc4cc(F)ccc43)CC2)c1,11,9.1,?,-2,2.6,-0.3,1,·
CCCCC(=O)NNC(=O)c1c(O)c2ccccc2[nH]c1=O,-10,-3.2,·,17,0.6,0.7,0,-6.9
Cc1ccnc(SCC(=O)n2c3c(c4ccccc42)CC(C)CC3)n1 (stereo not drawn),4,-1.7,-3%,-3,7.1,-0.7,·,·
S=C(Nc1ccc(Cl)cc1)c1nc2ccccc2s1,15,2.7,4%,9,9.4,-5.5,·,·
Cc1ccc2[nH]c(=O)c(CN(CCc3ccccc3)C(c3nnnn3Cc3ccco3)C(C)C)cc2c1 (stereo not drawn),47,4.0,?,10,3.2,-1.6,-1,0.4
C/C=C(\C)CN1CCC(n2nccc2NC(=O)CCCc2ccccc2)CC1,37,-2.7,·,-33,-7.0,-0.3,-4,1.7
CCn1nc(C(=O)OCC(=O)N2CC(=O)Nc3ccccc32)c2ccccc2c1=O,-12,0.3,-14%,-1,7.8,-0.4,1,0.1
CN=c1scc(C)n1/N=C/c1cc(Br)c(O)c(Br)c1,0,-1.0,28%,?,2.1,-0.5,3,1.4
S=C(c1ccc(-c2ccc(Br)cc2)o1)N1CCCCC1,14,0.0,6%,4,3.2,-1.9,·,2.9
Nc1nonc1-n1nnc(C(=O)N/N=C/c2ccc(O)cc2)c1COc1ccc(F)cc1,4,-2.8,0%,-2,0.2,0.1,-6,-2.6
CCOC(=O)C1(Cc2ccccc2C)CCCN(C(=O)c2cc(C3CC3)[nH]n2)C1 (stereo not drawn),7,0.2,-2%,-9,-10,-0.1,-3,-1.1
CC(=O)Nc1ccc(S(=O)(=O)N[C@@H](C)C(=O)Nc2ccc(N3CCOCC3)cc2)cc1,-4,1.7,15%,0,0.4,0.0,-5,·
O=C(CSc1ccccc1)NCCCc1ccccc1,-2,-1.1,-2%,1,0.5,-0.4,1,-2.0
CC(NC(=O)C(=O)N1CCCCC1)C(c1cccs1)N1CCN(c2ccccc2F)CC1 (stereo not drawn),-30,1.1,·,-7,0.2,0.3,-1,3.5
O=C(COC(=O)CCC1CCCC1)Nc1ccccc1Sc1ccccc1,-15,0.3,-7%,4,-1.7,0.3,-2,-5.4
Cc1cc(-c2ccc(F)cc2)nc2cc(C(N)=O)nn12,-15,0.2,?,-1,0.8,0.0,-2,·
CCOC(=O)N1CCN(C2CC(=O)N(c3ccc(F)cc3)C2=O)CC1 (stereo not drawn),9,3.2,2%,3,0.3,-0.1,-1,·
COC(=O)C1=C(C)Nc2ncnn2C1c1cccnc1 (stereo not drawn),18,-2.9,9%,1,0.8,0.5,-4,·
O=S(=O)(Nc1ccccn1)c1cccc(S(=O)(=O)c2ccc(Br)cc2)c1,-11,-5.7,11%,7,1.0,0.5,-4,0.1
Nc1ccc(C(=O)N/N=C/c2cn(Cc3ccc(F)cc3)c3ccccc23)cc1,24,3.2,·,-7,0.4,0.7,-9,2.3
NS(=O)(=O)c1ccc(CCNC(=O)CNC(=O)Cc2ccccc2)cc1,-12,0.2,·,1,-2.7,1.2,-3,-0.8
O=C(c1ccccc1)c1ccc(OCC(O)CNCc2ccc(F)cc2)cc1 (stereo not drawn),51,-2.3,-7%,-19,1.5,0.7,-1,-0.7
CC1SCC(NC(=O)c2ccc(Cl)cc2)CS1 (stereo not drawn),-3,2.2,·,1,-4.1,1.4,-2,-0.9
COc1ccc(Cl)cc1C(=O)Nc1ccncc1,19,-2.9,·,36,0.2,0.2,·,0.0
COc1ccc(CN2C(=O)CSCC2=O)cc1OC,-9,0.8,-8%,0,-2.9,0.0,-7,-7.9
CCC(=O)N1CCN(c2ccc(NC(=O)c3ccc([N+](=O)[O-])o3)cc2Cl)CC1,29,-2.1,-11%,1,·,·,·,5.4
O=c1c2ccccc2c(C=Nc2ccc(Cl)cn2)c(O)n1-c1cc(Cl)ccc1N1CCOCC1,-5,1.2,-6%,-4,10,0.7,8,·
Cc1cccc(NC(=O)CSc2ccc(-c3cccnc3)nn2)c1,-1,-1.8,-3%,-14,4.3,1.6,-8,0.7
O=C(COc1ccc(Cl)cc1Cl)NCCSc1ccc(Cl)cc1,9,0.7,-3%,30,-1.1,-0.2,-4,·
CCc1ccc(-c2cc3c(=O)n(CC(=O)NCCCN4CCN(C)CC4)ncn3n2)cc1,2,2.8,-1%,16,3.4,0.3,-5,1.0
COc1ccc(NC(=O)OCC(C)C)cc1OC,-12,-2.4,1%,?,0.2,0.5,-12,-1.2
Cc1ccc(C2(C)NC(=O)N(CC(=O)Nc3cc(C)on3)C2=O)cc1 (stereo not drawn),-18,3.2,-11%,30,8.1,-0.7,0,5.4
Cc1ccc(/C=C/C(=O)NCCc2c[nH]c3ccccc23)o1,8,6.2,3%,-1,-3.6,-1.1,0,-1.7
COc1cc(C(=O)NC2CCCCC2)ccc1OC1CCN(C(C)=O)CC1,-5,-0.6,·,-1,-1.4,1.0,-4,-1.6
CCC(=O)Nc1cc(C(=O)NCC2CCCN2CC)c(OC)cc1N(C)C (stereo not drawn),-14,8.1,-2%,10,0.8,0.3,-2,·
O=C(CSc1nnc(Cc2ccccc2)o1)c1cc(F)ccc1F,-6,0.5,-6%,-11,1.9,0.1,-7,-0.5
Cc1ccc(N2C(=O)c3ccccc3C2C(=O)c2cc(C)ccc2O)cc1 (stereo not drawn),6,0.3,30%,8,9.9,-2.3,-2,-1.2
O=C(N=C1SCC(=O)N1c1ccccc1Cl)c1ccccc1,-9,-0.2,7%,-3,·,·,·,0.8
C/C(=N\Nc1nnc2c3ccccc3n(C)c2n1)c1ccc(C)o1,28,-2.1,9%,23,-2.6,-0.4,6,·
COc1ccc(NS(=O)(=O)c2ccc(NS(=O)(=O)c3cccs3)cc2)cc1,7,-0.1,·,-1,0.1,1.0,-2,-5.2
CC1CCCC(C)N1NC(=O)Cc1ccccc1 (stereo not drawn),-10,4.5,·,1,2.8,0.0,-5,-1.2
CC(NC(=O)c1cccs1)c1ccc2c(c1)OCO2 (stereo not drawn),14,-3.2,1%,-13,2.8,-0.6,-1,·
CCN(CC(=O)Nc1ccc(C(C)=O)cc1)CC(=O)Nc1ccc2c(c1)OCCO2,·,·,13%,·,-6.0,-0.3,-3,0.4
Cn1cc(S(=O)(=O)NC2CCCCCC2)c(=O)n(C)c1=O,-11,0.1,·,-8,-7.1,1.4,-2,-2.1
COc1ccc(C(=O)NC(=S)NNC(=O)c2ccc(NC(C)=O)cc2)cc1Br,-12,4.4,30%,4,1.5,1.6,6,-0.4
CCN(CC)S(=O)(=O)c1ccc(C(=O)NNc2nc(-c3ccccc3)c3cc(Br)ccc3n2)cc1,34,-0.4,18%,?,-1.0,-0.1,-16,·
O=C(Nc1ccccc1Cl)N1CCN(c2ccc3nnc(-c4ccc(F)cc4)n3n2)CC1,32,-4.5,-4%,39,-1.3,-0.5,-3,·
COCCN=c1scc(-c2ccco2)n1/N=C/c1ccc(O)c(O)c1O,·,·,·,·,-0.1,0.4,-8,33*

# More records follow.
SMILES,T cruzi repl,RanGTP-Impb inh,Vif A3G,Calb FLC,LANA-H2A inh,Bfl-1 A1 inh,Beta cell apopt,MLL AF4-AF9 inh
CC(C)(C)c1nnc(SCC(=O)Nc2ccc(N3CCCCC3)cc2)n1N,·,·,-5%,·,+,0.7,1,7.4
CCN(CC)S(=O)(=O)c1ccc(C(=O)N2CCN=C2SC)cc1,0,2.7,1%,-7,-1.3,-0.5,2,-4.0
CC(Oc1cc2oc(=O)c3c(c2cc1Cl)CCC3)C(=O)NCc1cccnc1 (stereo not drawn),-1,-3.4,·,-7,-4.6,0.4,-1,-1.8
Cc1ccc(C(=O)NCCNC(=O)c2cnccn2)cc1,-4,-2.2,·,-3,-2.6,0.7,-7,0.8
CN(C)C(=O)Nc1ccccc1CC[N+](=O)[O-],-30,-0.9,7%,-11,2.4,0.7,-3,-0.8
COCc1[nH][nH]c(=O)c1C=Nc1ccc(C(F)(F)F)cc1,0,-1.6,-2%,-1,-0.6,1.2,-6,0.3
CCc1ccc2nc(Nc3ccc(OC)cc3OC)c(C#N)cc2c1,30,-0.5,-5%,11,6.0,-0.5,·,-10
CC12CCC(=O)N1C(C(=O)Nc1nc(-c3ccccc3)cs1)CS2 (stereo not drawn),6,2.4,-6%,-3,-2.4,-0.4,·,-13
CCOc1ccc(Cn2ccnc2)cc1[N+](=O)[O-],17,3.0,·,2,·,1.1,-10,·
C#CCOCCOCCOCCNc1nc(N2CCN(C(=O)[C@H]([C@@H](C)CC)n3cc(CCCCN)nn3)CC2)nc(N2CCN(C(=O)[C@H]([C@@H](C)CC)n3cc(CCCN=C(N)N)nn3)CC2)n1,·,·,·,·,-0.2,0.2,-17,24
COc1ccc(C(=O)Nc2nnc(-c3ccccc3)s2)cc1,-18,1.4,·,-5,4.7,-1.7,·,1.0
